HTT prom inh = inhibitors of huntingtin promoter activity; HEK293 HTT promoter firefly luciferase reporter (activity 0% = vehicle and -100% = no light), 24 h; Potency, µM (doses to about 57.5 µM), for the others: top-dose activity change, negative = inhibition, usual class: inhibitors; actives 0.93% (n = 48,000); AID 1508623; active means well fitted inhibition curve with a large enough effect; inconclusive means small, poorly fitted or top-dose-only effect; inactive means no such curve, though single readings can be large or run the other way; further: nearly all actives have a fitted effect of over 50% in size
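Quantitative HTS used concentration series of up to 57.5 uM final on HEK293 luciferase reporter cells, 24 h at 37 degrees C. Readout was Dual-Glo firefly luminescence.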
PMP22 txn prim = modulates PMP22 transcription in S16 Schwann cells; S16 Pmp22-F2sN Schwann cells (luciferase reporters placed in the Pmp22 gene), FLuc/NLuc coincidence luminescence, 24 h; Potency, µM (top dose mostly 57.5 µM), for the others: top-dose activity change, negative = inhibition, actives largely listed as inhibitors; actives 2% (n = 43,000); AID 1508649; active = clear falling dose curves in both reporters; inconclusive = both reporters move, but less clearly or upward; inactive = either reporter flat; the % is the NLuc reporter signal; further: on the % scale 0 is the no-effect control and ±100 the full control effect; some results filed as inactive show a strong effect at the top dose
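S16(c9) Schwann cells with FLuc/NLuc coincidence reporter in the Pmp22 3' UTR; compounds pin-transferred, 24 h at 37C. Dual-luciferase read: FLuc first, then NLuc after Stop&Glo, each 10 min at room temperature.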
Active calls of the source: *; ? = inconclusive; · = not tested or not shown; [ ] = remark or other dose. Potency means the concentration at half of the fitted maximal effect. No enrichment for hits; overall some 2.4% were active at least once.

Sample of the layout:
SMILES	HTT prom inh	PMP22 txn prim
O=C(Cn1c(=O)n(Cc2ccco2)c(=O)c2ccc(C(=O)NC3CCCC3)cc21)Nc1ccc(F)cc1	-3%	?
O=C(CSc1nc2ccccc2c2nc(-c3ccccc3)nn12)Nc1ccc(Br)cc1	18%	-9%
Cc1ccc(-n2c(=O)c3oc4ccccc4c3n(Cc3ccccc3F)c2=O)cc1C	-6%	2%
COc1ccc(-c2c(C)nn3c(C(F)(F)F)cc(-c4ccc(C)cc4)nc23)cc1	-27%	?
Cc1ccc(S(=O)(=O)Cc2ccc(C(=O)N3CCN(c4cccc(Cl)c4)CC3)o2)cc1	?	15µM*
CCOc1ccc(N(CC(=O)Nc2ccccc2CC)S(=O)(=O)c2c(C)noc2C)cc1	?	?
COCCCNC(=O)CN1C(=O)CSc2ccc(S(=O)(=O)N3CCOCC3)cc21	-9%	-5%

The listing, previewed entries included:
SMILES	HTT prom inh	PMP22 txn prim
O=C(Cn1c(=O)n(Cc2ccco2)c(=O)c2ccc(C(=O)NC3CCCC3)cc21)Nc1ccc(F)cc1	-3%	?
O=C(CSc1nc2ccccc2c2nc(-c3ccccc3)nn12)Nc1ccc(Br)cc1	18%	-9%
Cc1ccc(-n2c(=O)c3oc4ccccc4c3n(Cc3ccccc3F)c2=O)cc1C	-6%	2%
COc1ccc(-c2c(C)nn3c(C(F)(F)F)cc(-c4ccc(C)cc4)nc23)cc1	-27%	?
Cc1ccc(S(=O)(=O)Cc2ccc(C(=O)N3CCN(c4cccc(Cl)c4)CC3)o2)cc1	?	15µM*
CCOc1ccc(N(CC(=O)Nc2ccccc2CC)S(=O)(=O)c2c(C)noc2C)cc1	?	?
COCCCNC(=O)CN1C(=O)CSc2ccc(S(=O)(=O)N3CCOCC3)cc21	-9%	-5%
COc1ccccc1CNC(=O)C(CC(C)C)N1Cc2ccccc2C1=O (stereo not drawn)	-29%	16%
O=C(CSc1ccccc1)N1CCc2c([nH]c3ccccc23)C1c1ccc(F)cc1 (stereo not drawn)	-29%	?
CCOc1cc(CNC(=O)Cn2c(-c3cccs3)cc3cc(F)ccc32)ccc1OC	?	-28%
COc1ccc2[nH]cc(CCN=C(NC(=O)c3ccccc3OC)Nc3nc(C)cc(C)n3)c2c1	?	14µM*
COc1ccc(NC(=O)c2ncoc2-c2ccco2)cc1Cl	-20%	?
COc1ccc(CNC(=O)CCCN2C(=O)CSc3c2c(C)nn3-c2ccccc2)c(OC)c1	-23%	-2%
CCCn1c(=O)c2sccc2n2c(CCCC(=O)NCCOC)nnc12	-11%	-16%
COc1cccc2c1Oc1ncccc1N(c1ccc(C(=O)NCc3ccccc3C)s1)C2	?	-9%
Cc1cccc(C)c1NC(=O)CSc1nc(-c2ccccc2)nc2c1Cc1c(CO)cnc(C)c1O2	-15%	-10%
CCc1ccc(CNC(=O)c2cc3c(=O)oc4ccc(C)cc4c3s2)cc1	-6%	2%
CCOC(=O)c1cccc(NC(=O)CCn2c(-c3ccc(F)cc3)cc(C(=O)OCC)c2C)c1	?	?
COc1cccc(NC(=O)C(Cc2ccccc2)NS(=O)(=O)c2ccc3c(c2)c(=O)n(C)c(=O)n3C)c1 (stereo not drawn)	-14%	-17%
COc1ccc(NC(=O)N2CCC(n3c(C)nc4cccnc43)CC2)cc1OC	6%	-3%
C=CCc1cccc2cc(-c3nc4ccc(C)cc4[nH]3)c(=O)oc12	71%[activator]	-2%
Cc1ccc(-n2nc(C)c3nc(CCC(=O)Nc4ccc(F)cc4)c(=O)n(C)c32)cc1	3%	0%
CCOc1ccc(CC(=O)N2CCc3cc(OC)c(OC)cc3C2COc2ccc3c(C)cc(=O)oc3c2)cc1 (stereo not drawn)	-17%	?
CCN(CC)CCNC(=O)c1ccc(N)cc1	10%	·
CCCCN(C)S(=O)(=O)c1ccc(C(=O)Nc2sc3c(c2C(N)=O)CC(C)(C)NC3(C)C)cc1	-12%	3%
CCc1ccc(CNC(=O)C2CCCN(c3nnc(C)c4c(C)n(-c5ccc(OC)cc5)nc34)C2)cc1 (stereo not drawn)	?	?
CS(=O)(=O)c1ccc(-c2nnc(NC(=O)c3ccc4c(c3)OCCO4)o2)cc1	-6%	12%
COc1ccc(OC)c(NC(=O)Cn2c(=O)n(CC3CCCO3)c(=O)c3cc(OC)c(OC)cc32)c1 (stereo not drawn)	2%	1%
Cc1ccc2nc(-c3ccc(F)cc3)c(NC(C)(C)CC(C)(C)C)n2c1	0%	?
CN(C)C(=O)Oc1cccc([N+](C)(C)C)c1	16%	·
O=C1c2ccccc2C(=O)C1(c1ccccc1)N1CCN(c2cccc(C(F)(F)F)c2)CC1	?	?
COc1cc(Nc2ncnc3onc(-c4ccc(Cl)cc4)c23)cc(OC)c1	?	-16%
Cc1ccc2nc(-c3c[nH]c4ccccc34)c(Nc3ccccc3C)n2c1	11%	3%
CCn1cc(C(=O)NCc2ccccc2Cl)c(=O)c2cc(S(=O)(=O)N3CCCCCC3)ccc21	11%	-13%
COc1cccc(NC(=O)c2oc3ccccc3c2NC(=O)c2cc3ccccc3o2)c1	-2%	?
Cc1ccc(-n2ncc(C(=O)Nc3ccc4c(c3)OCO4)c2C2CCN(C(=O)OC(C)(C)C)CC2)cc1	-9%	-80%
O=C(NCc1cccc(F)c1)C1CCN(c2nc3ccccc3nc2C(F)(F)F)CC1	5%	-87%
Cc1ccc(-n2nc(CO)c(C(=O)NCc3cccnc3)n2)cc1C	-17%	2%
O=C(Cn1ncc2ccsc2c1=O)N1CCN(c2ccccc2)CC1	3%	-11%
Fc1ccc(-n2ncc3c(Nc4cccc(Cl)c4)ncnc32)cc1	-4%	?
Clc1ccc(CCNC(c2nnc(-c3ccccc3)o2)c2ccccc2Cl)cc1 (stereo not drawn)	?	?
CCOc1ccc(-c2ncnn2-c2sc3c(c2C#N)CCCCC3)cc1	-5%[11.5 µM]	-24%
COc1ccc(Cn2c(C(=O)O)c(CNCc3cccc(OC)c3)c3ccc(C)cc32)cc1	?	?
O=C(COCc1cc(-c2ccc(F)cc2)on1)Nc1cc(F)ccc1F	-16%	-8%
Cc1ccc(-n2nc(C)c3c(C)c(CCC(=O)NCc4ccccc4Cl)c(C)nc32)cc1	-15%	?
CCOc1ccc(N(CC(=O)Nc2ccc3c(c2)OCO3)S(=O)(=O)c2ccccc2)cc1	?	-21%
Cc1cccc(N2CCN(CCCNC(=O)Cn3ncc4c([nH]c5ccccc54)c3=O)CC2C)c1 (stereo not drawn)	0%	?
Cc1cc(C)c2c(n1)SCC(=O)N2CC(=O)Nc1ccc(C)c(C)c1	-23%	5%
Fc1ccc(CSc2nncn3c2cc2occc23)c(Cl)c1	-7%	-28%
Cc1ccc(OCC(=O)Nc2nonc2-c2ccc(Br)cc2)cc1C	-18%	-6%
Cc1cc2c(cc1S(=O)(=O)Nc1cccc(Cl)c1C)OCCN2C	?	?
COCCCNC(=O)c1ccc2c(=O)n(Cc3ccc(OC)cc3)c(=O)[nH]c2c1	-3%	34%
Cc1ccc(NC(=O)Cn2c(=O)nc(-c3ccccc3F)c3cc(Cl)ccc32)c(Br)c1	?	?
CN(C)c1ccc(-c2nc3ncc(Cl)c(N4CCN(CC(=O)Nc5nccs5)CC4)c3[nH]2)cc1	26%	·
CCOc1ccc2c(c1)c(=O)c(C(=O)c1ccc3c(c1)OCO3)cn2Cc1cccc(F)c1	?	-12%
Cc1ccc(S(=O)(=O)N2CCN(Cc3ccccc3Cl)CC2)cc1	?	-22%
CCOc1ccc(NC(=O)Cn2c(=O)n(Cc3ccco3)c(=O)c3oc4ccccc4c32)cc1	-7%	-18%
COc1ccc2c(c1)c1c(c(=O)n(-c3cccc(C)c3)c(=O)n1CC(=O)NCc1ccc(C)cc1)n2C	3%	-2%
CC(C)c1nc2ccc(C(=O)NCCCN3CCN(c4cccc(Cl)c4)CC3)cc2o1	?	?
CCN1CCN(c2oc(/C=C/c3ccc(OC)c(OC)c3)nc2C#N)CC1	-12%	-21%

One compound at a time, from the list above. Order of screens: HTT prom inh	PMP22 txn prim
COc1ccc(Cn2c(C(=O)O)c(CNCc3cccc(OC)c3)c3ccc(C)cc32)cc1 is listed as ?	?
Cc1cccc(N2CCN(CCCNC(=O)Cn3ncc4c([nH]c5ccccc54)c3=O)CC2C)c1 (stereo not drawn) is listed as 0%	?

The list goes on.
SMILES	HTT prom inh	PMP22 txn prim
CCc1ccccc1NC(=O)CN1CCCN(Cc2cc(C)ccc2C)S1(=O)=O	?	?
CCc1ccc2oc(-c3cc(NC(=O)c4cccs4)ccc3Cl)nc2c1	-10%	-65%
COc1cc(F)c(C(C)C)cc1-c1ccc(C(F)(F)F)cc1CN1C(=O)O[C@H](c2cc(C(F)(F)F)cc(C(F)(F)F)c2)[C@@H]1C	-9%	·
COc1ccc(Cl)cc1NC(=O)N1CC(=O)Nc2sc3c(c2C1c1ccccc1)CCCC3 (stereo not drawn)	?	-4%
Cc1cccc(N2CCN(c3nc4ccc(C(=O)c5ccccc5)cc4n4cnnc34)CC2C)c1 (stereo not drawn)	-3%	-6%
COC(=O)c1sc(NC(=O)/C=C/c2ccc(OC)c(OC)c2)c(C(=O)OC)c1C	30%	4%
Oc1cn2c(n1)Nc1ccc(Cl)c(Cl)c1C2	-7%[25.2 µM]	·
CCOc1ccc(N(CC)S(=O)(=O)N2CCCC(C(=O)NCc3ccc(Cl)cc3)C2)cc1 (stereo not drawn)	?	?
CCN(c1ccccc1C)S(=O)(=O)c1nnc(NC(=O)c2ccc(OC)c(OC)c2)s1	-26%	-45%
CC1(C)O[C@H]2[C@@H](O1)[C@@H](C(=O)Nc1cc(F)ccc1F)O[C@@H]1OC(C)(C)O[C@@H]12	5%	1%
CCOC(=O)C1CCC(CN(Cc2c(Cl)cccc2Cl)S(=O)(=O)c2ccc(Cl)cc2)CC1 (stereo not drawn)	?	?
Nc1ccn([C@@H]2CS[C@H](CO)O2)c(=O)n1	-1%[116 µM]	·
Cc1cc(C)c2oc(C(=O)Nc3sc4c(c3C(=O)NCc3ccco3)CCC4)cc(=O)c2c1	16%	11%
O=C(C1CCCN(S(=O)(=O)c2cccc3nsnc23)C1)N1CCN(c2ccccc2Cl)CC1 (stereo not drawn)	?	?
CCC1CN(C(=O)Nc2cc(Cl)c(OC)cc2OC)c2ccccc2O1 (stereo not drawn)	-5%	-7%
CCCN(CCC)C(=O)CSc1c2c(nc3ccc(Cl)cc13)CCCC2	-16%	?
CCOC(=O)c1cc(=O)c2c(OCC(COc3cccc4oc(C(=O)OCC)cc(=O)c34)OC(=O)[C@@H](N)CCCCN)cccc2o1	11%	·
CCc1ccc(S(=O)(=O)c2cn(CC)c3cc(N4CCCCC4)c(F)cc3c2=O)cc1	7%	?
N#Cc1ccccc1NC(=O)C(=O)NCC(c1ccc2c(c1)OCO2)N1CCOCC1 (stereo not drawn)	2%	-13%
O=C(NCCc1ccccc1)C(=O)NCC(c1ccco1)S(=O)(=O)c1ccccc1 (stereo not drawn)	-20%	0%
COc1ccc(C(=O)Nc2nnc(S(=O)(=O)N3CCN(c4ccc(F)cc4)CC3)s2)cc1	-1%	-7%
COc1cccc(N2CCN(C(=O)c3cc4c(=O)n(Cc5cccnc5)ccc4nc3C)CC2)c1	3%	4%
CC(C)C(=O)Nc1ccc2nc(SCC(=O)N3CCCC3)sc2c1	21%	14%
CCOc1ccc2ncc3c(-c4ccc(C)cc4)nn(-c4cccc(F)c4)c3c2c1	-10%	?
COc1ccccc1NC(=O)N1CCN(Cc2nc3ccc(C)cc3o2)CC1	-19%	16%
Cn1cc(S(=O)(=O)c2ccccc2)c(=O)c2cc(F)c(N3CCN(c4ccc(F)cc4)CC3)cc21	-7%	-16%
Cc1ccc(C(=O)NCC(c2cccnc2)N2CCc3ccccc32)cc1C (stereo not drawn)	?	?
COc1cccc(CNC(=O)Cn2c(=O)oc3cc(S(=O)(=O)N4CCCC4)ccc32)c1	-19%	-30%
O=C(CSc1nncn2c1cc1occc12)Nc1ccccc1C(F)(F)F	-28%	6%
COc1ccc(-n2c(=O)c3ccccc3n(Cc3ccc(F)cc3Cl)c2=O)cc1OC	-22%	?
CN(C)c1cccc(C(=O)N2CCC(c3c[nH]c4ccccc34)(c3c[nH]c4ccccc34)CC2)c1	-11%	?
COc1ccccc1CN1CCC(CNC(=O)c2cnn(-c3ccc(C)c(C)c3)c2C2CCN(C(=O)OC(C)(C)C)CC2)CC1	-20%	?
CCC(Oc1ccccc1)C(=O)N1CCN(Cc2cc(=O)n3nc(-c4cccc(C)c4)sc3n2)CC1 (stereo not drawn)	?	?
CCOc1ccccc1NC(=O)c1sc2nc(-c3ccc(OC)cc3)ccc2c1N	16%	?
O=c1c2oc3ccccc3c2n(Cc2cccc(Cl)c2)c(=O)n1Cc1ccc2c(c1)OCO2	-23%	3%
COc1ccc(NC(=O)Cn2cc(C(=O)c3cccs3)c3ccccc32)cc1	-19%	?
COc1cccc(CNC(=O)CN2C(=O)COc3ccc(S(=O)(=O)N4CCCCC4)cc32)c1	-21%	5%
CCc1nc(-c2cc(S(=O)(=O)N3CCN(c4ccccc4)CC3)ccc2OC)no1	-6%	33%
CCCCCN1C(C(=O)c2ccccc2)=C(NC(=O)c2ccccc2Cl)c2ccccc2S1(=O)=O	-8%[11.5 µM]	1%
COc1ccc(Cn2c(=O)c3cccnc3n(Cc3cccc(F)c3)c2=O)cc1	-35%	-38%
Cc1nc2c(cnn2-c2ccccc2Cl)c(=O)n1-c1ccc(C(C)C)cc1	?	?

Compound activity as filed in PubChem BioAssay.
